# Bioassay records deposited in PubChem BioAssay by Center for Chemical Genomics, University of Michigan.
# TAR Tat displ: HIV-1 TAR-Tat binding disruption; HIV-1 TAR RNA, Tat peptide displacement FRET; active compounds read high; z-score (concentration not given with the values); actives 0.6% (n = 100,000);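 note: score is relative to mean and SD of negative controls; some compounds called inactive have numbers as strong as hits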
# CDC25B CDK2 inh: human CDC25B-CDK2/CyclinA binding inhibition; P30305+P24941; HTRF CDC25B-CDK2/CyclinA binding, anti-His/anti-Flag; active compounds read high; z-score (no concentration beside the values); actives 0.72% (n = 94,000); AID 1259370;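 note: score is relative to mean and SD of negative controls; strong numbers were not always called active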
# Starred values were filed as active, the others as inactive; / = no result given.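 Rule for the calls: active = z-score from 3 up in half or more of its runs; inactive = the rest.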
# The first 12 entries (preview)
1) O=C(CSc1nc2c(sc(=S)n2Cc2ccco2)c(=O)n1-c1ccccc1)NC1CCCC1
2) CCN(CCO)c1ncnc2c1oc1nc3c(cc12)COC(C)(C)C3
3) O=C1CC(c2ccccc2OC2CCCC2)c2cnn(-c3nc4ccccc4s3)c2N1 (centres undefined)
4) CCOC(=O)c1c(NC(=O)CSc2nc3c(cc2C#N)C(=O)CCC3)sc2c1CCCC2
5) CC(CC(=O)Nc1ccc(Br)cc1F)S(=O)(=O)c1ccc2c(c1)NC(=O)CO2 (centres undefined)
6) CCN(CC)CCn1c(C)c(C)c2c1ncn1nc(Cc3ccccc3)nc21
7) CSCC[C@@H](C(=O)NC1CCCC1)N1Cc2ccccc2C1=O
8) O=S(=O)(NCCc1csc2nc(-c3ccccc3)nn12)c1ccc(F)cc1
Screen / compound no.,1,2,3,4,5,6,7,8
TAR Tat displ,1.2,-0.06,0.86,1.2,0.58,2.8,0.62,1.3
CDC25B CDK2 inh,/,/,/,-1.6,/,-1.6,1.9,/

9) CN(C)S(=O)(=O)c1cccc(-c2cn3cccnc3n2)c1
10) CCOc1ccc(S(=O)(=O)Nc2ccc3c(c2)CC(=O)N3C)cc1
11) COc1ccc(-c2nnc3n2N=C(c2ccc(C)c(C)c2)CS3)cc1
12) COc1ccc(-c2nc(SCC(=O)NCC3CCCO3)n3[nH]c(=O)cc3n2)cc1 (centres undefined)
Screen / compound no.,9,10,11,12
TAR Tat displ,1.9,1.1,1.2,-0.31
CDC25B CDK2 inh,-1.3,/,/,/

# The whole of this part, from the first entry:
1) O=C(CSc1nc2c(sc(=S)n2Cc2ccco2)c(=O)n1-c1ccccc1)NC1CCCC1
2) CCN(CCO)c1ncnc2c1oc1nc3c(cc12)COC(C)(C)C3
3) O=C1CC(c2ccccc2OC2CCCC2)c2cnn(-c3nc4ccccc4s3)c2N1 (centres undefined)
4) CCOC(=O)c1c(NC(=O)CSc2nc3c(cc2C#N)C(=O)CCC3)sc2c1CCCC2
5) CC(CC(=O)Nc1ccc(Br)cc1F)S(=O)(=O)c1ccc2c(c1)NC(=O)CO2 (centres undefined)
6) CCN(CC)CCn1c(C)c(C)c2c1ncn1nc(Cc3ccccc3)nc21
Screen / compound no.,1,2,3,4,5,6
TAR Tat displ,1.2,-0.06,0.86,1.2,0.58,2.8
CDC25B CDK2 inh,/,/,/,-1.6,/,-1.6

7) CSCC[C@@H](C(=O)NC1CCCC1)N1Cc2ccccc2C1=O
8) O=S(=O)(NCCc1csc2nc(-c3ccccc3)nn12)c1ccc(F)cc1
9) CN(C)S(=O)(=O)c1cccc(-c2cn3cccnc3n2)c1
10) CCOc1ccc(S(=O)(=O)Nc2ccc3c(c2)CC(=O)N3C)cc1
11) COc1ccc(-c2nnc3n2N=C(c2ccc(C)c(C)c2)CS3)cc1
12) COc1ccc(-c2nc(SCC(=O)NCC3CCCO3)n3[nH]c(=O)cc3n2)cc1 (centres undefined)
Screen / compound no.,7,8,9,10,11,12
TAR Tat displ,0.62,1.3,1.9,1.1,1.2,-0.31
CDC25B CDK2 inh,1.9,/,-1.3,/,/,/

13) COCCNC(=O)c1cc2c(s1)-c1ccc(Cl)cc1SC2
14) Clc1ccc(Oc2ncnc3c2nnn3Cc2ccccc2)cc1
15) COC(=O)c1sccc1-c1ccc(CN2CCN(c3ccccc3)CC2)o1
16) CCC1CCCCN1Cc1ccc(CNC(=O)c2c(C)oc3ncnc(N4CCCCC4)c23)o1 (centres undefined)
17) Cc1ccc(-c2cc(Nc3cccc4cccnc34)nc(C)n2)cc1
18) CCn1nccc1C1CCCN1C(=O)Nc1ccccc1Cl (centres undefined)
Screen / compound no.,13,14,15,16,17,18
TAR Tat displ,1.6,/,/,0.54,0.2,0.68
CDC25B CDK2 inh,-1.1,0.83,-0.97,/,3.7,3.2

19) COC(=O)c1ccsc1NC(=O)c1ccc2c(c1)OCCO2
20) CC1=C(c2ccc(C)c(C)c2)S(=O)(=O)N=C1N1CCN(c2ncccn2)CC1
21) O=C(Nc1ccc(S(=O)(=O)N2CCCCC2)cc1)c1noc2c1CCc1sccc1-2
22) CCOC(=O)N1CCC(NC(=O)C2CCCN(C(=O)N3CCOc4ccccc43)C2)CC1 (centres undefined)
23) O=C1CCC(=O)N1C1CCCCC1
24) COc1cc(-c2nc(-c3ccccc3)c(-c3ccccc3)[nH]2)ccc1O
Screen / compound no.,19,20,21,22,23,24
TAR Tat displ,1.7,0.21,1.7,1.4,/,/
CDC25B CDK2 inh,/,-7.3,/,0.7,-0.63,-0.82

25) CCc1ccc(-c2[nH]nc3nc(-c4ccc(OC)c(Br)c4)cc(C(=O)O)c23)cc1
26) CN1CCCCC(C2=C(Cl)C(=O)CCC2)C1=O (centres undefined)
27) Nc1nnc(CSCc2ccccc2Cl)s1
28) CN(C(=O)Cc1c(C(=O)O)n(C)c2ccccc12)c1ccc(Br)cc1
29) O=C(Cn1ccn(Cc2ccc(Cl)cc2)c(=O)c1=O)c1ccc(F)cc1
30) COc1ccc(-c2onc(C)c2C)cc1S(=O)(=O)N(C)c1ccc(C)cc1
Screen / compound no.,25,26,27,28,29,30
TAR Tat displ,2.7,/,/,/,-0.15,1.1
CDC25B CDK2 inh,/,-2,-1.6,-0.34,/,/

31) c1ccc2c(c1)nc(N1CCCC1)c1nncn12
32) CC[N+](CC)=c1ccc2ccc(O)cc2o1
33) CC(=O)N1CCc2cc(Br)cc(S(=O)(=O)CCC(=O)N3CCC(C)CC3)c21
34) Cc1nnsc1C(=O)Nc1ccc(S(=O)(=O)Nc2onc(C)c2C)cc1
35) Cc1cc(C)c(NC(=O)CCc2nc(CSc3nc4ccccc4o3)no2)c(C)c1
36) CCCCCc1nn2cc(-c3ccc(F)cc3)nc2s1
Screen / compound no.,31,32,33,34,35,36
TAR Tat displ,3.2,/,/,4.4,1,2.5
CDC25B CDK2 inh,-0.62,-0.82,-1.4,-1.7,/,-1.3

37) O=C(c1cc(CN2CCCC2)on1)N1CCN(C(=O)c2ccco2)CC1
38) OCCSc1nnc(COc2ccc(Br)cc2)n1-c1ccccc1
39) O=C(Cn1c(=O)oc2cc(S(=O)(=O)N3CCCC3)ccc21)NCc1ccc2c(c1)OCO2
40) CCCn1nc(-n2cnnc2)c(NS(=O)(=O)c2cc(OC)ccc2OC)c1C
41) CN1C(=O)c2ccccc2Sc2cc(NC(=O)c3ccc([N+](=O)[O-])o3)ccc21
42) Cc1ccccc1Cn1c(CN(C)Cc2ccccc2)nc2c1c(=O)n(C)c(=O)n2C
Screen / compound no.,37,38,39,40,41,42
TAR Tat displ,-0.1,2.4,/,0.42,-0.05,0.72
CDC25B CDK2 inh,/,-0.06,-1.5,-2.7,/,2

43) CCN(CC)CCCn1c(C)c(C)c2c1ncn1nc(-c3ccc(C)cc3)nc21
44) Cc1ccc(N2CCN(S(=O)(=O)c3ccc4oc(=O)c5ncn(C)c5c4c3)CC2)c(C)c1
45) CCSCCOC(=O)C1=C(C)NC2=C(C(=O)CCC2)C1c1ccc(OC)cc1OC (centres undefined)
46) CC(C)N1C(=O)c2cc3ccccc3n2CC1(C)C(=O)NC1CCCC1 (centres undefined)
47) COC(=O)c1ccc(Nc2c(-c3ccc4c(c3)OCC(=O)N4)c(=O)c2=O)cc1
48) COC(=O)CSc1nnc2n(Cc3ccccc3)c(=O)c3c4c(sc3n12)COC(C(C)C)C4 (centres undefined)
Screen / compound no.,43,44,45,46,47,48
TAR Tat displ,-0.15,-0.39,3.1,0.14,0.66,0.36
CDC25B CDK2 inh,-2.3,/,-2.4,/,/,-1.2

49) COc1ccc(C2NCCc3c2[nH]c2ccccc32)cc1 (centres undefined)
50) O=C(OCc1cc(=O)n2c(-c3ccccc3)csc2n1)c1ccccc1
51) Cc1ccc(C(CNC(=O)c2cc(=O)c3cc(C)c(C)cc3o2)N2CCC(C)CC2)o1 (centres undefined)
52) O=c1cnnc2sc(SCc3ccc(Br)cc3)nn12
53) O=c1cc(-c2ccccc2)nc2nc(COc3ccccc3)[nH]n12
54) O=C(CC1Nc2ccccc2NC1=O)Nc1ccccc1SC(F)(F)F (centres undefined)
Screen / compound no.,49,50,51,52,53,54
TAR Tat displ,0.91,-0.38,1.3,1.9,1.5,/
CDC25B CDK2 inh,-0.44,/,-0.59,-0.79,-0.04,-0.23

55) Cc1cccc2cc3c(NS(=O)(=O)c4ccccc4)nn(CC(C)C)c3nc12
56) Cn1c(=O)oc2cc(S(=O)(=O)CCC(=O)Nc3cccc(Br)c3)ccc21
57) CCc1ccc2oc(C(=O)Nc3sc4c(c3C(N)=O)CCCC4)cc(=O)c2c1
58) CC(C)NC(=O)c1noc(C(C)C)c1[N+](=O)[O-]
59) Cn1cnc(S(=O)(=O)Nc2ccc3[nH]ccc3c2)c1
60) Cc1nnc(NC(=O)Nc2ccccc2)nc1C
Screen / compound no.,55,56,57,58,59,60
TAR Tat displ,0.36,1.8,1.1,0.95,/,/
CDC25B CDK2 inh,-2.3,/,-1,-1.4,0.34,-2.4

61) CC12CN3CC(C)(CN(C1)C3c1ccccc1)C2=O (centres undefined)
62) Cc1ccc(CN(C(=O)C(C)Oc2ccccc2Cl)C2CCS(=O)(=O)C2)o1 (centres undefined)
63) Cc1ccc(S(=O)(=O)c2cn(C)c3cc(N4CCC(C)CC4)c(F)cc3c2=O)cc1C
64) COc1ccc(OCc2nnc(NC(=O)Nc3ccc(F)cc3)s2)cc1
65) CC1CCN(C(=O)CCC(=O)N2CCCn3nc(-c4cn(C)c5ccccc45)cc32)CC1
66) COc1ccc(C2=NN(C(C)=O)C(c3cc4ccc(C)cc4nc3Cl)C2)cc1 (centres undefined)
Screen / compound no.,61,62,63,64,65,66
TAR Tat displ,/,2.5,0.77,4.7,2.2,/
CDC25B CDK2 inh,-0.12,-1.8,/,0.71,/,0.59

67) O=C(Cc1ccc(NC2=NC3CS(=O)(=O)CC3S2)cc1)NCc1ccc(F)cc1 (centres undefined)
68) O=C(c1cnn2c1NC(c1ccc(Br)cc1)CC2C(F)(F)F)N1CCCCC1 (centres undefined)
69) CCCOc1ccc(C2c3c(oc4ccc(C)cc4c3=O)C(=O)N2CCCN(C)C)cc1 (centres undefined)
70) COc1ccc2c(c1)CC(NC(=O)NCCCN1CCOCC1)CO2 (centres undefined)
71) COC1=CC(=O)C=C(OC)C1=O
72) Cc1cc(NS(=O)(=O)c2ccc(-c3cnc(C4CC4)o3)cc2)ccc1Br
Screen / compound no.,67,68,69,70,71,72
TAR Tat displ,1.2,0.03,1.7,1.6,-0.85,0.9
CDC25B CDK2 inh,-0.69,-2.6,-1.3,/,/,/

73) Cc1cccc(Nc2nc(C)cc(C)c2C#N)c1
74) CCc1cc(C2CCCN2C(=O)c2cnn3c(C(F)(F)F)cc(-c4cccs4)nc23)on1 (centres undefined)
75) COc1ccc(OCC(O)Cn2c(Br)nc3c2c(=O)n(C)c(=O)n3C)cc1 (centres undefined)
76) CN(C)CCN(Cc1ccco1)C(=O)C1CCN(c2ccc(-c3cccs3)nn2)CC1
77) Cc1ccc(S(=O)(=O)c2nc(S(=O)(=O)c3ccccc3)sc2N2CCOCC2)cc1
78) O=C1NCCN(C2CCCC2)C1=O
Screen / compound no.,73,74,75,76,77,78
TAR Tat displ,-0.99,-3.5,/,0.45,0.28,1.8
CDC25B CDK2 inh,-4.2,/,-1.3,/,-2.3,/

79) CCCC(=O)Oc1cc2c(C(=O)OCC)c(C)n(C)c2c2ccccc12
80) N#Cc1ccc(-c2csc(-c3ccc(Cl)cc3)n2)cc1
81) O=C1C2ON(c3ccc(Cl)cc3)C(c3cccs3)C2C(=O)N1Cc1ccccc1 (centres undefined)
82) O=C(Nc1sc2c(c1C(=O)N1CCCC1)CCC2)c1ccccc1F
83) Cc1cc(O)c(C(=O)c2ccccc2C(=O)O)cc1C
84) CCOc1ccc(N2C(=O)N(c3cccc(Cl)c3)C3CS(=O)(=O)CC32)cc1 (centres undefined)
Screen / compound no.,79,80,81,82,83,84
TAR Tat displ,/,/,/,/,/,1.6
CDC25B CDK2 inh,0.55,-1.1,-0.3,-0.63,-2.6,0.48

85) CC(C)[C@H](NC(=O)CNC(=O)OC(C)(C)C)C(=O)N[C@H](C=O)C(C)C
86) Brc1cccc(-c2nnc3sc(CN4CCCCCC4)cn23)c1
87) COc1ccc(NC2SC(=O)N(c3ccccc3)C2=O)cc1 (centres undefined)
88) O=C(Nc1ccc(Cl)cc1)N1CCN(c2ccc3nncn3n2)CC1
89) CN(CC(=O)NC1CCCCC1)S(=O)(=O)c1ccc2[nH]c3c(c2c1)CCCC3
90) O=C1c2ccccc2C2CC(c3ccc(Cl)cc3)=NN12 (centres undefined)
Screen / compound no.,85,86,87,88,89,90
TAR Tat displ,0.72,/,/,/,-0.19,/
CDC25B CDK2 inh,/,0.08,-0.09,-1.6,/,1.2

91) COC(=O)c1cc(S(=O)(=O)N2CCN(C)CC2)cn1C
92) C=CCN1C(C(=O)c2ccccc2)=C(OC(=O)Cc2ccccc2)c2ccccc2S1(=O)=O
93) COc1cccc(Nc2nc(N3CCN(c4ccccc4)CC3)nc3c2cnn3C)c1
94) CN(C)C(=S)Nc1cccc(C(F)(F)F)c1
95) Cc1ccc2c(c1)NC(SCc1ccccc1)=NS2(=O)=O
96) O=C(NCc1ccco1)c1cnn2ccccc12
97) CCc1nc(OC2CCN3Cc4ccccc4N=C23)c2oc3ccccc3c2n1 (centres undefined)
98) Cc1cc(C)c(NS(=O)(=O)c2ccc3[nH]c(=O)[nH]c3c2)c(C)c1
Screen / compound no.,91,92,93,94,95,96,97,98
TAR Tat displ,0.89,/,0.16,/,2,/,0.46,-1.2
CDC25B CDK2 inh,-0.85,-1.4,/,-1.3,/,-0.6,/,-0.18
